# Rango release inh: qHTS Assay for Inhibitors of RanGTP induced Rango (Ran-regulated importin-beta cargo) - Importin beta complex dissociation; Biochemical FRET Rango-importin beta, RanGTP-induced dissociation; Potency, µM (doses to about 46.1 µM), without a hit: at the top dose activity change, negative = inhibition; hit rate 0.071% among 340,000; AID 540253, 2011; active means falling FRET ratio curve, often poorly fitted, with flat reads before Ran was added; inconclusive means other falling curves, or compound fluorescence or quenching; inactive means flat or rising ratio curve;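 further: potency means the concentration at half of the fitted maximal effect; % of control where 0% means no effect; nearly all actives have a fitted effect of over 45% in size; -100% = wells without RanGTP and RCC1; the record marks most hits as doubtful in a second field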
#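 Rango (0.1 uM)–importin beta (0.25 uM) complex; RanGTP-RCC1 trigger; 45 min RT; CFP/YFP FRET read.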
# Rango complex inh: qHTS Assay for Inhibitors of Rango (Ran-regulated importin-beta cargo) - Importin beta complex formation; Rango CFP/YFP FRET sensor + importin beta, 45 min; Importin subunit beta-1 (Homo sapiens), Q14974; hit rate 0.031% among 340,000; Potency, µM (titrated, usually from 92.2 µM), inactives show at the top dose inhibition of complex formation; active = rising FRET ratio curve, often small or poorly fitted; inconclusive = mostly compound fluorescence or quenching in the first reads; inactive = flat curves in all reads;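 further: potency means the concentration at half of the fitted maximal effect; 0% = DMSO wells and 100% = buffer wells lacking importin beta; nearly all actives have a fitted effect of over 15% in size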
#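 FRET biosensor (snurportin 1 IBB flanked by EYFP and cerulean), 50 nM, with compound 5 min, then 0.125 microM importin beta in PBS, 1 mM DTT, 0.02% Tween-20, 0.1% BSA. CFP/YFP ratio read after 45 min at room temperature; pre-read flags interference.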
# miR-21 FLuc: qHTS Assay for Modulators of miRNAs and/orActivators of miR-21. HeLa miR-21 FLuc reporter, luciferase, 48 h. Potency, µM (doses to about 38.3 µM), inactives show top-dose reporter change, positive = more light. 340,000 tested, under 10 active; active = well fitted rising curve with a large enough effect; inconclusive = small, poorly fitted or top-dose-only effect; inactive = no such curve, though single readings can be large or run the other way;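 further: % of control where 0% means no effect; miR-21 action dims this reporter so a rising signal means less miR-21 action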
#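 Using DMEM plus 10% FBS, HeLa miR-21-FLuc cells are incubated with test compounds (final up to about 40uM) for 48 hours; firefly luciferase signal is then imaged following reagent-mediated lysis.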
# GLA inh pH 4.5: qHTS Assay for Inhibitors of Human alpha-Galactosidase at pH 4.5. purified enzyme, 4-MU-alpha-Gal fluorescence, pH 4.5. activity change, negative = inhibition, % at 105 µM. 230,000 tested, under 10 active. AID 1467, 2008; inconclusive = small, poorly fitted or top-dose-only inhibition, or a rising curve; inactive = flat fitted curve, though single readings scatter; no compound was filed as active;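 further: 0% = full activity with enzyme and -100% = basal without enzyme; dose as in the result columns while the protocol names 77 µM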
# Target sequence (P06280 whole entry, looked up): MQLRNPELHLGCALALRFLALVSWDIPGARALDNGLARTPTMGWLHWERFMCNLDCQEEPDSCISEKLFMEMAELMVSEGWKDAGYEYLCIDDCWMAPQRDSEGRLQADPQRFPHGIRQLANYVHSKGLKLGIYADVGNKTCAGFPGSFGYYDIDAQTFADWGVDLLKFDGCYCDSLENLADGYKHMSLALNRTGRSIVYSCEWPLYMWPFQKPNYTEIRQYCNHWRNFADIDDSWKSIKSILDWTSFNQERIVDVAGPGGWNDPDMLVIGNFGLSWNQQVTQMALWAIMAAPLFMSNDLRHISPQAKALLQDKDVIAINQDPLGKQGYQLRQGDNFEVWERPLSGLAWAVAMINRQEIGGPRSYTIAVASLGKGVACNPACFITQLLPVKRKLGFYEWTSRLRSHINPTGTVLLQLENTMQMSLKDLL
# * hit, by the source's call; ? = inconclusive; nt = not tested or not shown; & = joins results of further samples. Not all compounds are listed; count on the stated rates, not on these rows.
# Order of values: Rango release inh | Rango complex inh | miR-21 FLuc | GLA inh pH 4.5
CCCn1c(-c2cccs2)nc2c1c(=O)[nH]c(=O)n2Cc1ccccc1
  -4% | -4.8% | -5% | 3
Cc1cc2c(c(=O)n1Cc1ccco1)C(c1cccnc1)C(C#N)=C(N)O2 (stereo not drawn)
  -21% | ? | -11% | -22
CCC(OC(=O)c1ccco1)C(=O)NCc1ccco1 (stereo not drawn)
  -8% | 4.4% | -4% | -20
C=CCOc1cc(OC)c(OC)c(OC)c1
  0% | -4.9% | -1% | 2
O=c1[nH]ncc(N/N=C/c2ccccc2)c1Cl
  -13% | -0.2% | -14% | -10
COc1ccc(Cc2noc(CN3CCN(c4ccc(Cl)cn4)CC3)n2)cc1OC
  -14% | 0.2% | 15% | 5
OCC[C@H]1NCc2cc(CO)cc(-c3ccccc3)c21
  -5% | -0.7% | nt | nt
Cc1c(C(=O)NC(=S)Nc2cccnc2)cccc1[N+](=O)[O-]
  -3% | -1.8% | 0% | nt
Cc1nc2c(C#N)cnn2c2c1CCNN2C
  0% | -0.6% | 3% | 7
Cn1c(SCC(=O)c2cccs2)nnc1-c1ccco1
  -10% | 1.3% | -23% | 2
CCCCn1c(SCC(=O)Nc2cc(C)on2)nnc1-c1ccncc1
  ? | -1.1% | 0% | nt
Cc1cccc2cc(-c3nc4c(C)cccn4c3NCc3ccco3)c(=O)[nH]c12
  -8% | -0.5% | -2% | -4
Cc1ccc(NC(=O)CCNS(=O)(=O)c2ccc(Br)s2)cc1
  2% | 5.3% | 8%&-2% | nt
CCOC(=O)C1=C(COC(=O)CCc2ccc(CC)cc2)NC(=O)NC1C (stereo not drawn)
  4% | -2.8% | nt | nt
CSc1ccccc1NC(=O)CN(c1cccc(C)c1)S(C)(=O)=O
  11% | -2.5% | -9% | 4
CCCCn1c(N)c(N(CC(C)C)C(=O)COC(=O)Cc2c(C)nc3ccccc3c2C)c(=O)[nH]c1=O
  1% | 0.4% | 0% | nt
Cc1ccc(C(CC(=O)NCc2ccco2)c2ccccc2)c(O)c1 (stereo not drawn)
  19% | -2.1% | 0% | -1
C/C(=N/OC(=O)c1ccc(C)cc1)c1cccs1
  -8% | 4.0% | -7% | 7
CCCOc1ccc(C(=O)Nc2cccnc2)cc1
  -5% | -0.2% | -52% | nt
CC(C)N(Cc1ccccc1)C(=O)COC(=O)c1ccc(S(=O)(=O)N2CCOCC2)cc1
  1% | 1.3% | nt | nt
CCCCCCN1CC(=O)N2Cc3[nH]c4ccccc4c3C[C@H]2C1=O
  0% | -4.7% | -6% | nt
Cc1nn(-c2cc(C)c3ccccc3n2)c2c1C1C(C2)C1(C)C (stereo not drawn)
  -13% | -0.9% | -11% | -4
COc1ccc(OC)c(Nc2ccc(Nc3cc(OC)ccc3OC)nn2)c1
  1% | 1.0% | -8% | -1
CSc1nc(=O)n2cccc(C)c2n1
  -2% | -3.2% | -4% | -2
Cc1nn(-c2ccccc2)c(-c2ccccc2[N+](=O)[O-])c1C(=O)O
  -1% | -1.6% | 3% | 3
Cc1c(Cl)cccc1NC(=O)CC1Sc2ccccc2NC1=O (stereo not drawn)
  -1% | -1.3% | -13% | 4
NC(=O)CSc1ccc(Br)cc1
  8% | 0.0% | -4% | -6
Cn1c(=O)c2c(nc(NCCNC(=O)c3ccco3)n2Cc2ccccc2Cl)n(C)c1=O
  10% | 3.2% | 0% | 6
CCOc1cccc(/C=N/Nc2ccc(S(=O)(=O)N(CC)CC)cn2)c1O
  30% | -1.3% | 13% | 4
O=[N+]([O-])c1cc(C(F)(F)F)ccc1Cl
  0% | -0.7% | nt | nt

# Ordered by number of heavy atoms (falling): some entries from above.
# Order of values: Rango release inh | Rango complex inh | miR-21 FLuc | GLA inh pH 4.5
CC(C)N(Cc1ccccc1)C(=O)COC(=O)c1ccc(S(=O)(=O)N2CCOCC2)cc1
  1% | 1.3% | nt | nt
COc1ccc(Cc2noc(CN3CCN(c4ccc(Cl)cn4)CC3)n2)cc1OC
  -14% | 0.2% | 15% | 5
CCOc1cccc(/C=N/Nc2ccc(S(=O)(=O)N(CC)CC)cn2)c1O
  30% | -1.3% | 13% | 4
CCCn1c(-c2cccs2)nc2c1c(=O)[nH]c(=O)n2Cc1ccccc1
  -4% | -4.8% | -5% | 3
Cc1c(C(=O)NC(=S)Nc2cccnc2)cccc1[N+](=O)[O-]
  -3% | -1.8% | 0% | nt
OCC[C@H]1NCc2cc(CO)cc(-c3ccccc3)c21
  -5% | -0.7% | nt | nt
O=c1[nH]ncc(N/N=C/c2ccccc2)c1Cl
  -13% | -0.2% | -14% | -10

# Further results.
# Order of values: Rango release inh | Rango complex inh | miR-21 FLuc | GLA inh pH 4.5
CN(C)CCOCCP(=O)(c1ccccc1)c1ccccc1
  -18% | -2.3% | -7% | 3
CC(=O)N1CCN=C1SCc1ccc(Cl)cc1
  -5% | -6.1% | -2% | -1
Cc1cccc2sc(NS(C)(=O)=O)nc12
  -11% | 2.1% | -6% | 6
CCn1nc(C)c(Br)c1-c1nc(-c2cccc(C)c2)no1
  4% | -0.8% | 1% | -4
CC(C)N1CCc2c(sc(NC(=O)c3nc4ccccc4s3)c2C(N)=O)C1
  ? | ? | -1% | -13
CC(C)c1ccc(OCC(=O)NC2CCCC2)cc1
  -13% | 5.9% | -7% | nt
COc1cc(/C=C2/C(=O)N(c3ccc(Br)cc3)N=C2C)cc(OC)c1OC
  -13% | -0.4% | 10% | nt
Cc1ccc(/C=N/NC(=O)CNC(=O)Cc2ccccc2)o1
  -4% | -3.4% | 1% | 1
COc1cc(C(=O)N/N=C(\C)Cn2nc([N+](=O)[O-])cc2C)ccc1O
  -13% | 0.1% | -10% | -8
O=C(NCc1cccnc1)NC1(c2ccccc2)CC1
  1% | -2.9% | 0% | -10
COc1ccccc1N1CCN(C2CC(=O)N(c3ccc(Cl)cc3)C2=O)CC1 (stereo not drawn)
  32% | -1.2% | -7% | nt
O=c1/c(=C/c2ccc([N+](=O)[O-])cc2)sc2n1CCCN=2
  0% | 1.8% | -38% | -7
N#Cc1cc(S(=O)(=O)c2ccc(Cl)cc2)c(N)[nH]c1=O
  ? | ? | 6% | 6
C=CCSc1nnc(-c2ccc([N+](=O)[O-])cc2)o1
  21% | 3.3% | -62% | 2
C/C(=N\NC(=O)c1ccc(CSc2nncn2C)cc1)c1cccs1
  6% | 4.2% | -42% | -3
Cc1cccc(C(=O)Oc2ccc(/C=N/NC(=O)c3ccc(O)cc3)cc2)c1
  15% | -4.1% | -7% | nt
CC(C)(C)n1nnnc1C(c1cc2cc3c(cc2[nH]c1=O)OCCO3)N1CCSCC1 (stereo not drawn)
  4% | 2.6% | -11% | 12
COc1ccc(CCNC(=O)c2ccccc2SC)cc1
  -4% | 1.2% | -11% | -1
Clc1ccc(-c2nnc(-c3ccc(Br)cc3)c(N3CCSCC3)n2)cc1
  -12% | -0.3% | -6% | -5
COC(=O)c1ccc(NC(C(=O)OC)C(C)C)c([N+](=O)[O-])c1 (stereo not drawn)
  1% | 3.0% | -4% | -3
O=C(Nc1ncc([N+](=O)[O-])s1)c1ccco1
  ? | ? | -32% | nt
COC(=O)c1cccc(NC(=O)c2onc3c2CCCC3)c1
  1% | 4.4% | -35% | -4
CN(C)S(=O)(=O)N(CC(=O)Nc1cccc(F)c1)c1ccccc1
  -6% | -1.1% | -3% | 1
O=C(NCC(c1cccs1)N1CCOCC1)c1cc(-c2ccc(F)cc2)nc2ccccc12 (stereo not drawn)
  0% | -1.9% | 9% | -9
Cc1[nH]n(-c2ccc(C(=O)O)cc2)c(=O)c1CCO
  0% | 1.6% | -1% | 5
O=C(Nc1cc(S(=O)(=O)N2CCOCC2)ccc1N1CCOCC1)c1ccc(Cl)nc1
  17% | 0.2% | -1% | 6
COC(=O)Nc1cc(C)nc2ccccc12
  -8% | 5.0% | 13% | 6
NC(=O)N/N=C/c1coc2ccc(O)cc2c1=O
  10% | -1.9% | 6% | -26
COc1cc([N+](=O)[O-])ccc1N=Nc1c(N)[nH]n(-c2ccccc2)c1=O
  6% | 5.4% | -2% | -2
CCCS(=O)(=O)N1CCC(C(=O)NCCC(C)C)CC1
  -1% | -1.2% | -1% | 7

# Continued:
# Order of values: Rango release inh | Rango complex inh | miR-21 FLuc | GLA inh pH 4.5
COc1ccccc1CNC(=O)CN1C(=O)NC2(CCCc3sccc32)C1=O (stereo not drawn)
  0% | -0.6% | nt | nt
Cc1cc(N(CN2CCCC2=O)C(=O)c2ccccc2)no1
  -1% | 1.9% | -4% | -2
COC1(C)CC2C(CC1OC(=O)c1cc([N+](=O)[O-])cc([N+](=O)[O-])c1)C2(C)C (stereo not drawn)
  0% | 1.1% | -3% | -5
FC(F)(F)c1cnc(Oc2ccccc2-c2nnco2)c(Cl)c1
  -1% | 4.4% | -9% | -2
Cc1ccccc1-c1nn(-c2ccc(F)cc2F)cc1CNCC(C)O (stereo not drawn)
  3% | -0.8% | 0% | -2
O=C(CCC(=O)N1CCN(Cc2ccc(F)cc2)CC1)Nc1nnc(C(F)(F)F)s1
  -10% | -3.0% | 0% | nt
CC1(C(=O)N2CCC(CO)(Cc3cccc(C(F)(F)F)c3)CC2)CC1
  19% | 1.2% | 25% | nt
O=C(NCc1ccccc1)c1cccc(F)c1F
  4% | 1.0% | -8% | 7
O=c1cc(CSc2ccccn2)c2ccccc2[nH]1
  9% | -1.1% | -27% | -9
COc1ccccc1NC(=O)CCNC(=O)Cn1ccc2ccccc2c1=O
  16% | -2.4% | -3% | 2
Cc1cc2nc(=O)c(/C=C3\C=Nc4ccccc43)c(N)n2o1
  ? | ? | -7% | -2
CCCCC(=O)Nc1cc(OCC)c(NC(=S)NC)cc1OCC
  28% | 0.2% | 1% | 6
C/C(CC(=O)Nc1ccc(N(C)C)cc1)=N\NC(=O)c1ccc(C(C)(C)C)cc1
  -18% | -2.3% | -2% | nt
CC1(C)COCN1C(=O)c1ccc(C#N)cc1
  12% | 8.7% | 4% | nt
Cc1ccc(C(=O)NCCN2CCOCC2)c(Cl)c1
  5% | -3.1% | -35% | nt
CCCCc1nnc(SC(C)C(=O)Nc2nccs2)n1C (stereo not drawn)
  -3% | -6.9% | 2% | nt
COc1ccc(CCNC(=O)C2CCN(S(=O)(=O)c3ccc(SC)cc3)CC2)cc1
  9% | 0.9% | 1% | nt
COc1cc(/C=C2/NC(=O)N(CC(=O)Nc3ccc(C)cc3)C2=O)ccc1Oc1ccc([N+](=O)[O-])cn1
  3% | -1.8% | 3% | 4
CCOC(=O)Cc1csc(NC(=O)CCc2ccccc2)n1
  -10% | 2.3% | -4% | nt
CCN(Cc1ccccc1)S(=O)(=O)c1ccc(C(=O)N(CCCN(C)C)c2nc3cc(C)cc(C)c3s2)cc1
  -13% | 0.5% | nt | nt

# Some of the entries so far, bar-delimited:
canonical_smiles | Rango release inh | Rango complex inh | miR-21 FLuc | GLA inh pH 4.5
OCC[C@H]1NCc2cc(CO)cc(-c3ccccc3)c21 | -5% | -0.7% | nt | nt
CC(=O)N1CCN=C1SCc1ccc(Cl)cc1 | -5% | -6.1% | -2% | -1
O=C(NCc1cccnc1)NC1(c2ccccc2)CC1 | 1% | -2.9% | 0% | -10
COC(=O)Nc1cc(C)nc2ccccc12 | -8% | 5.0% | 13% | 6
CC1(C(=O)N2CCC(CO)(Cc3cccc(C(F)(F)F)c3)CC2)CC1 | 19% | 1.2% | 25% | nt
Cc1cccc2cc(-c3nc4c(C)cccn4c3NCc3ccco3)c(=O)[nH]c12 | -8% | -0.5% | -2% | -4
CN(C)S(=O)(=O)N(CC(=O)Nc1cccc(F)c1)c1ccccc1 | -6% | -1.1% | -3% | 1
